AF4-AF9 inh: inhibitors of human MLL-AF4/AF9 interaction | inhibition, % at 10 µM | hit rate 0.47% among 350,000 | AlphaScreen, biotin-AF4 peptide binding to FLAG-AF9 | P42568;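 active = every replicate reaching a set inhibition limit, whatever the replicate mean, cut at about 25% in these data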;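 note: 0% = plate neutral control median and 100% = total signal loss; the record names both 10 and 1 µM as test concentration; the first replicate is given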
Target sequence (P42568 whole entry, looked up): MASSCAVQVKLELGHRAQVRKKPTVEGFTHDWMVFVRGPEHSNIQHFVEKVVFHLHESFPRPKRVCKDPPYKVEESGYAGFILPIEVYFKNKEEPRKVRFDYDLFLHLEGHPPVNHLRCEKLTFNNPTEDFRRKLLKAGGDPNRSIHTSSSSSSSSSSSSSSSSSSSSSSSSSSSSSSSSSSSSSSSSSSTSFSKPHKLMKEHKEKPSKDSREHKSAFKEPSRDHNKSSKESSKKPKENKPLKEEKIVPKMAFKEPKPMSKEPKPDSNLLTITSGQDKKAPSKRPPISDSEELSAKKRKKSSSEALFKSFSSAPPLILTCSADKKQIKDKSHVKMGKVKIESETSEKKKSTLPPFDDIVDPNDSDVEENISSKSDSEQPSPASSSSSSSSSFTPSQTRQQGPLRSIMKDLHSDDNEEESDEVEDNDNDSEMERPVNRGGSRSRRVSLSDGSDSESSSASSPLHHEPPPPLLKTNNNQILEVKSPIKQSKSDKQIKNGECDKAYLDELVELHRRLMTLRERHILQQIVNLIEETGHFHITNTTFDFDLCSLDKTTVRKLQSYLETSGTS
rRNA inh HTS: inhibits bacterial ribosomal RNA function over humanized ribosomes; E. coli WT GFP vs humanized-ribosome RFP mutants, fluorescence, 24 h; active compounds read low; DMSO median 0, no signal -100; GFP signal change (wild-type ribosome), % (no concentration beside the values); hit rate 1.6% among 350,000;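 active = significant combined selectivity score with lowered wild-type GFP, culture density cut under 30%, mutant RFP and density less affected; inactive = any of these conditions unmet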; note: one replicate is shown; some compounds called inactive have numbers as strong as hits
FGF22 binding: shifts melting point of recombinant human FGF22; hit rate 1.5% among 340,000; Q9HCT0; calls only at 9.99 µM; recombinant FGF22 thermal shift, SYPRO orange fluorescence; percent of sucrose octasulfate shift, DMSO zero;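 active = melting point raised past a set limit in the mean and every replicate; three in four hits are not shown here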
Target sequence (Q9HCT0 whole entry, looked up): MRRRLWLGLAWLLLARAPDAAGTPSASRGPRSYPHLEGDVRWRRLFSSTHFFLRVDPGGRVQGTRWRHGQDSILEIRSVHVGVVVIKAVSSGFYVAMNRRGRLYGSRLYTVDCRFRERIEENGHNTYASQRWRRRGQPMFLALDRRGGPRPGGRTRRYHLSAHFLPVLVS
rRNA inh HTS OD600: further read-out of rRNA inh HTS, marked with its call; OD600 change, %; measured here: OD600 growth;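 optical density of the mix in the first replicate; 0 = DMSO median and -100 = no signal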
rRNA inh HTS RFP: second read-out of rRNA inh HTS, no call of its own (marks repeat the call); RFP signal change, %; measured here: RFP humanized mutant strains;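 first replicate; 0 = DMSO median and -100 = no signal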
* hit, by the source's call; i = inactive; nt = no result given; & = joins results of further samples. A portion of the library; rates above refer to the full screens.

structure | rRNA inh HTS OD600 | FGF22 binding | rRNA inh HTS | rRNA inh HTS RFP | AF4-AF9 inh
C[C@H]1CN([C@@H](C)CO)C(=O)c2cc(/C=C/c3ccccc3)cnc2O[C@H]1CN(C)C | 5 | i | 7 | 4.5 | -0.3
Cc1ccccc1S(=O)(=O)N1C[C@@H](O)COC[C@H]2O[C@H](CC(=O)NCCc3ccccc3)CC[C@@H]21 | 8 | i | 2 | 1.2 | 14
CSCCC(C(=O)Nc1c(C)cccc1C)N1CCN(c2ccc(F)cc2)CC1 (stereo not given) | 10 | i | 17 | 5.4 | 1.5
C/C=C/c1ccc2c(c1)O[C@H](CN(C)C(=O)Nc1cccc(F)c1)[C@H](C)CN([C@@H](C)CO)S2(=O)=O | -13 | i | -2 | 0.6 | 3.7
C[C@H](CO)N1C[C@H](C)[C@@H](CN(C)Cc2ccc(C(=O)Nc3ccccc3N)cc2)Oc2ccc(NS(=O)(=O)c3ccccc3)cc2CC1=O | 2 | i | -2 | -0.1 | -3.1
CC1(C(=O)NCc2ccccc2)Cc2c(-c3ccccc3)ccnc2O1 (stereo not given) | -18 | i | -5 | -1.1 | -4.6
Cc1noc(C)c1NC(=O)Nc1ccc2c(c1)C(=O)N([C@@H](C)CO)C[C@H](C)[C@@H](CN(C)C(=O)c1ccccc1)OCCCC[C@@H](C)O2 | 8 | i | 1 | -1.0 | -2.1
CCCCNC(=O)C[C@@H]1C[C@@]2(C(=O)OCC)CCCC=C2N(Cc2ccco2)C1=O | 9 | i | 15 | 0.4 | -4.7
CCCNC(=O)N(C)C[C@@H]1Oc2cc(-c3ccccc3)ccc2S(=O)(=O)N([C@H](C)CO)C[C@H]1C | -14 | i | -2 | -1.2 | 0.4
COCC(=O)N1CC2(C1)CN(Cc1ccccc1Cl)[C@H](CO)c1c2c2ccc(OC)cc2n1C | -7 | i | -9 | 0.7 | 0.0
CNC[C@H]1Oc2cc(-c3ccccc3F)ccc2S(=O)(=O)N([C@@H](C)CO)C[C@H]1C | 4 | i | 1 | 5.7 | -1.5
Cc1noc(C)c1S(=O)(=O)Nc1ccc2c(c1)CC(=O)N([C@@H](C)CO)C[C@H](C)[C@H](CN(C)S(=O)(=O)c1c(C)noc1C)O2 | 5 | i | 1 | -0.5 | -1.6
C[C@@H]1CCCCO[C@H](CN(C)C(=O)c2ccncc2)[C@H](C)CN([C@@H](C)CO)C(=O)c2cc(NC(=O)C3CCCCC3)ccc2O1 | 4 | i | -2 | 0.2 | 2.3
COC(=O)[C@@]12C[C@@H](CC(=O)NCc3cccc4ccccc34)C(=O)N(Cc3ccco3)C1=CCC(C)(C)C2 | -9 | i | -1 | 4.9 | 4.3
O=C(Nc1nnc([C@@H]2C[C@H](O)[C@@H](CO)O2)s1)c1cccc(Cl)c1 | 2 | i | 3 | -0.7 | -1.1
CC(=O)Nc1cc(-c2ccc(C(=O)N3CCOCC3)cc2)cn2c(-c3ccc(S(C)(=O)=O)cc3)cnc12 | 18 | i | 1 | 2.2 | -6.5
CO[C@H]1CN(C)C(=O)c2cc(NC(C)=O)ccc2OC[C@H](C)N(C(=O)CC2CC2)C[C@H]1C | -2 | i | 0 | 0.1 | -1.0
COc1ccc(CNC(=O)COC(=O)CN2C(=O)C3CCCCC3C2=O)cc1 (stereo not given) | -1 | i | 4 | 1.4 | -0.2
Cc1ccc(S(=O)(=O)Nc2ccc3c(c2)C(=O)N([C@@H](C)CO)C[C@@H](C)[C@H](CN(C)S(=O)(=O)c2ccc(C)cc2)OCCCC[C@H](C)O3)cc1 | 7 | i | -2 | 0.9 | -8.7
C[C@H](NC(=O)C[C@H]1CC[C@@H]2[C@H](COC[C@H](O)CN2C(=O)Nc2cccc(Cl)c2)O1)c1ccccc1 | nt | i | i | nt | 0.1
C[C@@H]1CN([C@H](C)CO)C(=O)c2cccc(NC(=O)Nc3cccc4ccccc34)c2O[C@@H]1CN(C)S(=O)(=O)c1ccc(Cl)cc1 | 7 | i | 3 | 1.9 | -1.5
Cc1noc(C)c1NC(=O)Nc1ccc2c(c1)CC(=O)N([C@@H](C)CO)C[C@H](C)[C@H](CN(C)C(=O)Nc1ccc3c(c1)OCO3)O2 | 1 | i | 0 | -0.3 | -0.2
CO[C@@H]1CN(C)C(=O)c2cc(NC(=O)C3CCCC3)ccc2OC[C@H](C)N(C)C[C@H]1C | 6 | i | 1 | -0.7 | 0.2
CCC(=O)N1C[C@@H](O)COC[C@H]2O[C@@H](CC(=O)NCc3ccc(Oc4ccccc4)cc3)CC[C@@H]21 | -8 | i | 0 | 1.8 | -0.2
COc1ccccc1S(=O)(=O)N[C@@H]1CC[C@@H](CC(=O)N2CCOCC2)O[C@@H]1CO | 3 | i | 3 | -4.0 | -3.5
COc1ccc(S(=O)(=O)Nc2ccc3c(c2)CC(=O)N([C@@H](C)CO)C[C@@H](C)[C@H](CN(C)C(=O)Nc2ccccc2)O3)cc1 | 2 | i | 1 | 2.5 | -2.5
COc1ccc(NC(=O)N(C)C[C@H]2Oc3ccc(NS(C)(=O)=O)cc3C(=O)N([C@@H](C)CO)C[C@@H]2C)cc1 | -1 | i | 3 | -0.5 | -3.2
COCCNC(=O)C[C@@H]1C=C[C@H](NS(=O)(=O)c2ccc(C)cc2)[C@H](CO)O1 | 8 | i | 2 | 0.1 | 1.0
C[C@@H]1CN([C@H](C)CO)C(=O)Cc2cc(NC(=O)Nc3ccc(F)cc3)ccc2O[C@@H]1CN(C)S(C)(=O)=O | 1 | i | 0 | 0.4 | 2.0
COc1ccc2c3c([nH]c2c1)[C@H](CO)N(Cc1cccnc1)CC31CN(C(=O)CN(C)C)C1 | 0 | i | -1 | 0.7 | -3.6
C[C@H](CO)N1C[C@H](C)[C@H](CN(C)C(=O)c2ccccc2)Oc2cc(Br)ccc2S1(=O)=O | 7&-5 | i | 6&-5 | 4.3&-2.8 | -3.4&-0.3
COCC(=O)N1CC2(CCN(S(C)(=O)=O)CC2)c2c(n(C)c3cc(OC)ccc23)[C@H]1CO | 1 | i | 3 | -4.8 | 2.0
O=C(NC1CCCC1)C(C1CC1)n1c(-c2ccnc3ccccc23)nc2ccccc21 (stereo not given) | 2 | i | -4 | 3.0 | -0.7
CCc1noc(C)c1C(=O)OCC(=O)NCCc1ccc(OC)cc1 | 1 | i | 0 | 3.9 | 0.4
O=S(=O)(c1ccc(F)cc1)N1CCCCN2[C@H](CO)[C@H](c3ccc(C#CC4CC4)cc3)[C@H]2C1 | -57 | i | -45 | -8.7 | 6.4
c1ccc(NN(Cc2cnccn2)c2ccccc2)cc1 | -11 | i | -13 | 2.0 | 8.3
CC[C@@H]1Cc2[nH][nH]c(=O)c2[C@H](CC(C)C)O1 | 19 | i | 14 | 1.3 | -1.8
COc1ccc(NC(=O)N(C)C[C@@H]2Oc3c(NC(=O)NC4CCCCC4)cccc3C(=O)N([C@H](C)CO)C[C@H]2C)cc1 | 8 | i | -1 | 1.0 | 1.5
CO[C@@H]1CN(C)C(=O)c2cc(NC(=O)C3CCOCC3)ccc2OC[C@@H](C)N(C(=O)Nc2ccc(C(F)(F)F)cc2)C[C@H]1C | -77 | i | -55 | -20 | -0.8
Cc1ccc(S(=O)(=O)Nc2ccc3c(c2)C(=O)N([C@@H](C)CO)C[C@H](C)[C@H](CN(C)C(=O)Nc2cccc4ccccc24)O3)cc1 | 0 | i | 1 | 4.6 | 1.0
COc1ccccc1CNC(=O)C[C@@H]1CC[C@H](NC(C)=O)[C@@H](CO)O1 | 1 | i | -1 | 1.8 | -1.2
COCC(=O)N1CC2(CN(C(=O)c3ccccn3)C2)c2c(n(C)c3cc(OC)ccc23)[C@@H]1CO | 9 | i | 2 | -1.8 | -6.3
CC(C)NC(=O)Nc1ccc2c(c1)C(=O)N([C@H](C)CO)C[C@H](C)[C@H](CN(C)C(=O)Nc1ccccc1)OCCCC[C@H](C)O2 | 2 | i | 3 | -2.3 | -2.8
N#C[C@@H]1[C@H](c2ccc(-c3cncnc3)cc2)[C@H](CO)N1C(=O)C1CCC1 | 18 | i | 7 | -1.1 | -0.2
COc1ccc(CN(C)C[C@H]2Oc3ccc(NC(=O)C4CC4)cc3C(=O)N([C@@H](C)CO)C[C@@H]2C)cc1 | -6 | i | 4 | -0.1 | -5.1
CCCCOCCCNC(=O)C[C@@H]1C[C@@]2(C(=O)OCC)CCC=C2N(Cc2ccc(Cl)cc2Cl)C1=O | 1 | i | 2 | 4.7 | -4.3
CCC(=O)Nc1ccc2c(c1)OC[C@H](C)NC[C@H](C)[C@H](OC)CN(C)C2=O | 2 | i | -1 | -1.0 | -0.4
COc1ccc(S(=O)(=O)N(C)C[C@H]2Oc3ccc(NS(C)(=O)=O)cc3C(=O)N([C@H](C)CO)C[C@H]2C)cc1 | -2 | i | -2 | -1.0 | -2.4
O=C(Nc1cccc(Cl)c1)N1C[C@H]2[C@@H](c3ccccc31)[C@@H](CO)N2C(=O)c1ccncc1 | -17* | i | -23* | 4.7* | 1.2
C[C@@H]1CCCCO[C@@H](CN(C)Cc2ccc3c(c2)OCO3)[C@H](C)CN([C@H](C)CO)C(=O)c2cc(NC(=O)Nc3ccc(F)cc3)ccc2O1 | -45 | i | -24 | 36 | 17
O=C(NCc1cccc(C(F)(F)F)c1)c1ccc2nc([C@H]3C[C@H](O)[C@@H](CO)O3)[nH]c2c1 | -4 | i | 3 | 1.4 | -6.5
CO[C@@H]1CN(C)C(=O)c2ccc(NC(=O)Nc3ccccc3)cc2OC[C@H](C)N(C(=O)CN(C)C)C[C@@H]1C | 5 | i | 0 | -0.7 | 6.3
C[C@H]1CN([C@@H](C)CO)S(=O)(=O)c2ccc(C3=CCCC3)cc2O[C@H]1CN(C)C(=O)C1CCOCC1 | -8 | i | 0 | -0.3 | -1.8
O=C(c1ccccc1)N1CC(=O)N2[C@H](CO)[C@H](c3ccc(C#CC4CC4)cc3)[C@@H]2C1 | 0 | i | 0 | -2.3 | 2.0
Cc1nc2c(OCc3ccc(Cl)cc3Cl)cccn2c1N(C)CC1CC1 | -68 | i | -42 | 6.6 | 3.3
CCOC(=O)[C@]12CCC=C1N(Cc1ccccc1)C(=O)[C@H](CC(=O)NCCCCc1ccccc1)C2 | -7 | i | 0 | 6.2 | -2.5
O=C(C[C@@H]1C=C[C@H](NC(=O)C2CC2)[C@@H](CO)O1)Nc1nccs1 | 3 | i | 1 | -1.2 | 2.7
O=C(NCc1ccc(F)cc1)[C@@H]1[C@@H](CO)[C@@H]2Cn3c(cccc3=O)[C@@H]2N1C(=O)c1cccnc1 | 1 | i | 1 | 1.0 | 0.6
CC(O)(c1ccc(F)c(F)c1)c1nc(-c2ccncc2)cs1 (stereo not given) | -8 | i | -1 | -2.4 | 0.2
CCC(=O)N1Cc2cc(C(=O)NCCOC)nc(-c3cccc(-c4ccc(C#N)cc4)c3)c2[C@@H]1CCO | -9 | i | -1 | 2.4 | 4.0

Later entries:
structure | rRNA inh HTS OD600 | FGF22 binding | rRNA inh HTS | rRNA inh HTS RFP | AF4-AF9 inh
CN(C)C(=O)CCc1ccc2c3c([nH]c2c1)[C@]1(C)[C@@H](C(=O)N2CCOCC2)C[C@H](CC(=O)NCCCn2ccnc2)C(=O)N1CC3 | 7 | i | 6 | 1.2 | -1.3
C[C@H]1CN([C@@H](C)CO)C(=O)c2cccc(NS(=O)(=O)c3cn(C)cn3)c2O[C@H]1CN(C)C(=O)Nc1ccc(C(F)(F)F)cc1 | -6 | i | 2 | -2.5 | -5.1
CN(C)CCCNC(=O)C[C@H]1CC[C@@H](NS(=O)(=O)c2ccccc2)[C@H](CO)O1 | -1 | i | 2 | 0.7 | 0.2
C[C@H]1CCCCO[C@H](CN(C)C(=O)Nc2ccccc2)[C@@H](C)CN([C@@H](C)CO)C(=O)c2cc(NC(=O)Nc3ccccc3)ccc2O1 | -3 | i | 0 | 0.8 | -0.8
C/C=C/c1ccc2c(c1)O[C@H](CN(C)C(=O)CN(C)C)[C@H](C)CN([C@H](C)CO)S2(=O)=O | -3 | i | 1 | -1.0 | -1.3
C[C@H](CO)N1C[C@H](C)[C@@H](CN(C)C(=O)CCC(F)(F)F)OCCCC[C@H](C)Oc2ccc(NC(=O)c3ccccc3)cc2C1=O | -5 | i | -1 | -0.4 | -1.1
CCCCN(C(=O)c1sc2nc3n(c(=O)c2c1C)CCC3)c1c(N)n(CC(C)C)c(=O)[nH]c1=O | 15 | i | 16 | 2.0 | -0.9
C/C(=N/NC(=O)c1nnn(-c2nonc2N)c1CSc1ccc(Cl)cc1)c1ccncc1 | -13 | i | -3 | -2.3 | -1.1

Some entries already given, reduced to AF4-AF9 inh and rRNA inh HTS:
| SMILES | AF4-AF9 inh | rRNA inh HTS |
| --- | --- | --- |
| C/C=C/c1ccc2c(c1)O[C@H](CN(C)C(=O)CN(C)C)[C@H](C)CN([C@H](C)CO)S2(=O)=O | -1.3 | 1 |
| C[C@H](CO)N1C[C@H](C)[C@@H](CN(C)C(=O)CCC(F)(F)F)OCCCC[C@H](C)Oc2ccc(NC(=O)c3ccccc3)cc2C1=O | -1.1 | -1 |
| CCCCN(C(=O)c1sc2nc3n(c(=O)c2c1C)CCC3)c1c(N)n(CC(C)C)c(=O)[nH]c1=O | -0.9 | 16 |
| C/C(=N/NC(=O)c1nnn(-c2nonc2N)c1CSc1ccc(Cl)cc1)c1ccncc1 | -1.1 | -3 |
